Screening results: PubChem BioAssay, several laboratories
BJeLR lethal – MLPCN primary cell-based screen for lethality selective to Ras in HRASV12 cells. inhibition, % (no concentration beside the values). hit rate 0.17% among 300,000. AID 1554, 2009. BJeLR (HRASV12) viability, CellTiter-Glo ATP luminescence, 48 h; reference of the scale not given here;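 active means replicate mean above 50%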;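 further: 50 nL library stock added to about 25 µL; numbers are from one replicate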
PrP 5UTR inh – inhibition of PrP 5' UTR reporter expression | inhibition, % (concentration not given with the values) | hit rate 0.35% among 340,000 | cell-based PrP 5' UTR mRNA reporter, plate reader;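 active means every replicate at 50% or more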;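 further: 0 = median of the neutral control wells; tested in H4 reporter cells; numbers are from one replicate; inactives centre near -14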
Bead autofluor – compound fluorescence in toxin protease inhibitor counterscreen | compound autofluorescence counterscreen, microsphere flow cytometry; hits give high values | fluorescence intensity (test concentration not listed) | hit rate 3.1% among 360,000 | AID 624483;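 active means at least 3 SD above the mean of all compounds, about 16000 in these data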;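 further: 100 nL of 1 mM stock went into each well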
RN4220 kill – growth inhibition of S. aureus RN4220, primary screen, OD600 | 16 h | inhibition, % (no concentration beside the values) | hit rate 0.33% among 330,000 | AID 1259311, 2017;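 active means z-score of -3 or lower and OD600 up to 0.18 on both plates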;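 further: plate controls were untreated cells for no effect and reference antibiotic for full effect; stock transfer was 100 nL into about 80 µL; one replicate is shown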
ugtP null kill – growth inhibition of ugtP-null S. aureus, primary screen, RN4220 ugtP deletion, OD600 | 16 h; some inactives read as strong as hits | growth inhibition, % (no concentration beside the values) | hit rate 0.54% among 330,000;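 active means z-score under -3 and OD600 up to 0.15 on both plates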;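 further: plate controls were untreated wells for no effect and antibiotic for full effect; wells of about 80 µL received 100 nL stock; the first replicate is given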
Mtb hypoxia inh – PubChem AID 1159583; M. tuberculosis hypoxia-regulated fluorescent reporter, fluorescence; fluorescence inhibition, % (no concentration beside the values); hit rate 0.1% among 300,000;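 active means 35 to 45% if threefold the growth effect, above 45% if 1.5-fold the growth effect; inactive means the rest, general growth blockers included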;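 further: wells of about 50 µL received 100 nL stock; 0% = vehicle wells and 100% = reference inhibitor wells; whole bacteria with a GFP reporter of the hypoxia response; strong numbers were not always called active; many hits fall short of the cut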
Mtb hypoxia inh growth – second read-out of Mtb hypoxia inh, no call of its own (marks repeat the call); growth inhibition, %; measured here: M. tuberculosis growth (absorbance);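 0% = vehicle and 100% = reference antibiotic; read after six days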
An asterisk follows results filed as active; x = no result given.

A first look (three entries):
SMILES	BJeLR lethal	PrP 5UTR inh	Bead autofluor	RN4220 kill	ugtP null kill	Mtb hypoxia inh	Mtb hypoxia inh growth
C[C@@H](CC#N)CN1CC[C@H](C(C)(C)C)CCC1=O	1	-40	3280	x	x	x	x
CCn1c(SCC(=O)N(C)CC(=O)Nc2cccc(OC)c2)nnc1-c1ccco1	5	-26	4114	2.7	5	9	-2
Cn1c(=O)c(=O)n(C)c2cc(S(=O)(=O)N3CCN(c4ccccc4F)CC3)ccc21	3	-24	10206	4.9	7	0	-5

This part in full, repeating the preview:
SMILES	BJeLR lethal	PrP 5UTR inh	Bead autofluor	RN4220 kill	ugtP null kill	Mtb hypoxia inh	Mtb hypoxia inh growth
C[C@@H](CC#N)CN1CC[C@H](C(C)(C)C)CCC1=O	1	-40	3280	x	x	x	x
CCn1c(SCC(=O)N(C)CC(=O)Nc2cccc(OC)c2)nnc1-c1ccco1	5	-26	4114	2.7	5	9	-2
Cn1c(=O)c(=O)n(C)c2cc(S(=O)(=O)N3CCN(c4ccccc4F)CC3)ccc21	3	-24	10206	4.9	7	0	-5
O=C(CSc1ccccc1)Nc1ccc(S(=O)(=O)NCC2CCCO2)cc1 (stereo not given)	4	-32	8766	2.0	-4	8	5
O=C(Nc1nncs1)c1cccc(S(=O)(=O)N2CCOCC2)c1	7	-19	16353*	4.0	6	2	9
COC(=O)c1c(NC(=O)CN2CCN(c3ccccc3OC)CC2)c2cc(C)ccc2n1C	0	-14	6897	5.6	6	11	6
O=S(=O)(CC(O)COc1ccccc1Cl)c1ccccc1 (stereo not given)	1	-14	4062	1.5	-7	x	x
COc1ccc(S(N)(=O)=O)cc1C(=O)N1CCCC1	-1	-10	4142	-3.4	1	-1	2
COC(=O)c1ccc(/C=N/NC(=O)CNc2cccc(C)c2)cc1	3	-22	4155	x	x	x	x
O=C(c1ccc(Cl)cc1Cl)N1CCc2ccccc21	-3	-16	3832	x	x	x	x
Cc1ccc(C)c(NC(=S)N2CCC(NC(=O)c3ccc(F)cc3)CC2)c1	-1	-21	5238	1.7	5	2	7
Cc1ccc(-c2noc(CSc3nnc(-c4ccccc4)n3C)n2)cc1	8	-21	9902	4.0	9	1	-1
COc1ccc(Cl)cc1NC(=O)CSc1nnc(CNC(=O)c2cccs2)o1	-6	-8	5765	0.3	3	10	3
CC(C)Cc1ccc(CN2CCCC(NC(=O)CCN3CCCO3)C2)cc1 (stereo not given)	5	-5	6203	0.6	4	6	3
Cc1ccc(NC(=O)N2Cc3ccccc3CC2C(=O)NC(C)(C)C)cc1 (stereo not given)	13	-10	3002	-5.8	-3	0	8
COc1ccc(CN(C(=O)c2ccc(C)cc2)c2cccc(N)c2)cc1	-3	-8	4395	8.2	2	0	4
CCCC(=O)Nc1nnc(SCC(=O)Nc2nc(C)cs2)s1	-5	-19	5480	1.0	-1	6	-5
Cc1cccc(NCC(=O)c2c(N)n(C)c(=O)n(C)c2=O)c1C	5	-14	4108	3.7	6	10	7
CCCCn1c(=O)nc2n(-c3ccccc3)c3ccccc3cc-2c1=O	17	x	11112	3.2	7	8	0
Nc1cc(N)c2c(c1)C(=O)c1ccccc1-2	x	-46	3392	5.1	6	5	2
CCN(CC)S(=O)(=O)c1ccc(C(C)NC(=O)Cc2c[nH]c3ccccc23)cc1 (stereo not given)	3	-21	3973	1.5	-1	15	3
Cc1cc(=O)n2c(n1)NC(=NCc1ccccc1)NC2c1ccccc1 (stereo not given)	0	x	x	-0.2	1	-3	-8
Cc1nccnc1Sc1ccccc1	-3	6	4361	x	x	x	x
CNC1=C(N(C(C)=O)c2ccc(Br)cc2)C(=O)c2ccccc2C1=O	51*	-44	2309	24	13	x	x
CN(Cc1cccnc1)C(=O)c1cc(COc2ccc3ncccc3c2)on1	14	-9	4234	4.9	8	-2	13
O=C(CN1C(=O)S/C(=C\c2cccs2)C1=O)Nc1ccc(C(=O)O)c(O)c1	-1	-132	5110	3.2	5	-5	1
Cc1ccc(C(=O)NC2CC2)cc1S(=O)(=O)N1CCOCC1	x	-17	x	0.7	6	2	1
Cc1ccc(CNC(=O)c2ccccc2NC(=O)CN2CCN(C)CC2)cc1	9	0	3163	2.2	3	16	9
COc1cc(O)c(C(CCN2CCCCC2)c2ccc3c(c2)OCO3)c(OC)c1 (stereo not given)	5	-6	4073	-3.4	-1	-2	-6
N=c1n(CCO)c2ccccc2n1CCN1CCCCC1	x	-12	4405	3.1	-1	2	4
O=C(O)CCC(=O)N1CCc2cc(S(=O)(=O)NC3CCCc4ccccc43)ccc21 (stereo not given)	5	-15	11993	5.0	16	6	4
COC(=O)C1=C(c2cc3ccccc3o2)C[C@@H]2CC[C@H]1N2C(=O)NCCCOC(C)C	-3	13	3855	x	x	x	x
NCC(O)c1cc(O)c(O)cc1F (stereo not given)	x	4	4427	8.6	4	15	-3
Cc1ccc(C)c(OCCn2cc(/C=C(\C#N)C(=O)NCC3CCCO3)c3ccccc32)c1 (stereo not given)	-5	-18	2160	-6.2	-30	0	5
COC(=O)c1ccccc1NC(=O)c1cncc(Br)c1	-6	-4	4374	4.5	-3	-5	-8
COc1ccc(/C=C(/NC(=O)c2ccccc2)C(=O)N/N=C/c2ccncc2)cc1	-2	-12	2484	x	x	x	x
COc1cccc(S(=O)(=O)Nc2cccnc2)c1	-3	-63	12046	5.6	12	3	7
Cc1ccc(C(=O)OCC(=O)N2C(C)CCCC2C)s1 (stereo not given)	x	-21	3770	7.7	13	10	-1
COc1cc(/C=N/NC(N)=O)cc([N+](=O)[O-])c1O	2	-3	1984	x	x	x	x
CS(=O)(=O)N1CCN(c2ccccc2NC(=S)NC(=O)c2ccco2)CC1	-1	-1	5364	-0.6	5	-5	7
CCCN(CC1CC1)C(=O)CCc1nnc(C(OC)c2ccccc2)o1 (stereo not given)	3	-17	4488	0.2	0	5	4
CC(C)C(=O)NC(=S)Nc1ccc(S(=O)(=O)N2CCN(C)CC2)cc1	2	-2	2500	1.3	17	3	8
CC(c1ccccc1)n1c(Cn2ncc3ccccc3c2=O)n[nH]c1=S (stereo not given)	13	-6	4494	5.5	-2	8	7
O=[N+]([O-])c1ccc2[nH]c(O)c(N=Nc3ccc(F)cc3)c2c1	12	-17	3885	-3.4	-11	4	0
COc1ccc(OC(=O)COc2ccc(Cl)cc2)cc1	2	-4	3916	-1.0	-4	-16	8

Complete entries, quoted from the list. Values in the order: BJeLR lethal, PrP 5UTR inh, Bead autofluor, RN4220 kill, ugtP null kill, Mtb hypoxia inh, Mtb hypoxia inh growth
`COc1ccc(OC(=O)COc2ccc(Cl)cc2)cc1` is listed with 2, -4, 3916, -1.0, -4, -16, 8
`COc1cc(/C=N/NC(N)=O)cc([N+](=O)[O-])c1O` is listed with 2, -3, 1984, x, x, x, x
`COc1cccc(S(=O)(=O)Nc2cccnc2)c1` is listed with -3, -63, 12046, 5.6, 12, 3, 7
`CC(c1ccccc1)n1c(Cn2ncc3ccccc3c2=O)n[nH]c1=S` (stereo not given) is listed with 13, -6, 4494, 5.5, -2, 8, 7
`NCC(O)c1cc(O)c(O)cc1F` (stereo not given) is listed with x, 4, 4427, 8.6, 4, 15, -3

Next records
SMILES	BJeLR lethal	PrP 5UTR inh	Bead autofluor	RN4220 kill	ugtP null kill	Mtb hypoxia inh	Mtb hypoxia inh growth
Cc1cc(OCC(=O)N2CCc3ccccc3C2)c2c(-c3ccccc3)cc(=O)oc2c1	-9	-10	4459	-1.1	-16	x	x
Cc1cc(N2CCN(C)CC2)nc(=S)[nH]1	-3	-9	4919	2.8	-4	0	-3
Cn1c(Sc2ccc(C(=O)O)cc2[N+](=O)[O-])nnc1-c1ccccc1	-5	10	4581	1.1	5	5	0
O=C(COc1ccc(Br)cc1)NCCCNC(=O)c1ccncc1	-18	4	6185	1.9	4	12	0
Cc1ccc(N(C(=O)c2csnn2)C(C(=O)NC2CCCC2)c2cccnc2)c(C)c1 (stereo not given)	4	-6	3054	0.7	6	-2	-6
COC(=O)c1ccc(C2/C(=C(\O)c3ccc4c(c3)OCCO4)C(=O)C(=O)N2CCCN(C)C)cc1 (stereo not given)	-17	-12	4092	0.6	13	x	x
Nc1nn(-c2ccccc2Cl)cc1-c1nn[nH]n1	-1	11	4993	1.1	1	-5	-1
COc1cc(OC)c(OC)cc1CCC(C)NCCC(c1ccccc1)c1ccccc1 (stereo not given)	-3	-6	3232	x	x	x	x
Cc1cc(C)n(-c2c(F)c(F)c(CN3CCOCC3)c(F)c2F)n1	-7	-17	3402	4.3	-4	3	-2
COC(=O)c1ccc(NN=Cc2cc([N+](=O)[O-])cc(OC)c2O)cc1	x	x	x	-3.8	-7	6	3
CC(=O)NC1=NN(C(C)=O)C(C)(c2ccccn2)S1 (stereo not given)	8	-10	4803	7.3	17	3	-6
Cc1nnc(NC(=O)CSc2nccn2C)s1	-23	-4	3934	2.8	2	4	6
Cc1nnc2c3ccccc3c(-c3ccccc3)nn12	0	-24	11084	0.7	11	-5	-12
N#CCn1cnc2c(oc3ccccc32)c1=O	-7	-85	4968	0.8	5	9	-8
NC(=O)c1ccc(NC(=O)COC(=O)C2CCN(S(=O)(=O)c3cccs3)CC2)cc1	x	-16	7852	3.9	1	4	-4
Cc1ccc(-n2nnnc2-c2cccs2)cc1[N+](=O)[O-]	2	-18	5984	-0.4	0	-17	0
CCN1/C(=C/c2cc[n+](C)cc2)C=Cc2cc(C)ccc21	x	1	2885	54	100*	24	9
COc1ccc(C(=O)Nc2ccccc2C(=O)NC(Cc2ccc(O)cc2)C(=O)NNC(=O)c2ccccc2Cl)cc1 (stereo not given)	0	-20	9512	5.9	13	10	13
CC(=O)Nc1ccc(NC(=O)COC(=O)/C=C/c2ccc3c(c2)OCO3)cc1	x	x	5238	0.1	0	4	2
O=C(COc1ccc(Br)cc1Br)NC(=S)N1CCCc2ccccc21	-6	-16	5356	-0.1	-12	0	-4
O=C(CCc1nc2ccccc2c(=O)[nH]1)Nc1ccc(Cl)c(Cl)c1	-7	-5	2046	-14	-26	0	9
CC(=O)C1=C(O)C(=O)N(c2ccc(O)cc2)C1c1cccc([N+](=O)[O-])c1 (stereo not given)	-10	0	3136	4.5	8	6	10
Clc1ccc(C2=CSC3=NCCN23)cc1Cl	0	2	6507	-8.0	9	x	x
COc1ccccc1CC(=O)NCc1nn(-c2ccccc2)nc1C	-4	-22	3840	1.3	3	3	-3
COc1ccccc1CNC(=O)COc1ccc(S(=O)(=O)N2CCCC2)cc1	6	-10	2999	3.8	7	12	-3
Cc1cccc(S(=O)C(c2ccccc2)c2ccccc2)c1 (stereo not given)	x	-19	3043	9.9	12	7	8
O=c1[nH]c(O)c(N=Nc2cc([N+](=O)[O-])ccc2O)c(=O)[nH]1	3	-4	4516	12	-1	11	4
O=C(OCc1nc2ccccc2s1)c1ccc(Br)s1	0	-33	23134*	1.1	70	-1	1
CCCCCn1c(=O)[nH]c2cc(C(=O)N3CCN(c4ccccc4F)CC3)ccc2c1=O	-1	-6	3910	0.1	11	-10	-10
COc1ccc(C2CC(=O)C=C(c3ccc(SC)cc3)C2)cc1OC (stereo not given)	x	x	x	-0.9	-2	-3	-1
CC(C)NC(=O)Nc1ccc2c(c1)C(=O)N([C@@H](C)CO)C[C@@H](C)[C@@H](CN(C)S(=O)(=O)c1ccc(F)cc1)O2	x	-12	2893	-11	1	4	5
COC(=O)C1CCN(c2ccc(C(N)=O)cc2[N+](=O)[O-])CC1	-6	-3	2209	2.3	9	7	-2
CCS(=O)(=O)N1CCC(NC(=O)c2cc(OC)cc(OC)c2)CC1	1	-27	5077	5.9	-2	16	8
O=C(Cc1ccccc1F)Nc1nc(-c2ccc(F)cc2)cs1	-2	-32	3939	-24	72	10	2
C=CCn1c(O)c(C(C)=NCCN2CCOCC2)c(=O)[nH]c1=O	5	1	21797*	4.0	4	0	8
O=C(CCN1C(=O)C2C3C=CC(C4CC34)C2C1=O)Oc1ccc(Br)cc1 (stereo not given)	-9	0	2521	2.9	-5	-5	5
CNS(=O)(=O)c1ccc(N2CCCC2=O)c([N+](=O)[O-])c1	-5	-39	2056	4.6	6	-1	4
CC(=O)c1cccc(N(CC(=O)NC2CCCCC2)C(=O)Cn2nnc(-c3ccccc3)n2)c1	-5	-6	3632	3.4	3	4	-8
CCC(=O)Nc1nnc(S(=O)(=O)N2CCCc3ccccc32)s1	0	2	5949	9.0	13	11	1

Compounds as they come, and some 4% of all compounds hit somewhere here.
